Source: PubChem
MLL AF4-AF9 inh: blocks AF4 peptide binding to human AF9; P42568; AlphaScreen, biotin-AF4 peptide binding to FLAG-AF9; inhibition, % at 10 µM; actives 0.47% (n = 350,000);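 active = every replicate reaching a set inhibition limit, whatever the replicate mean, cut at about 25% in these data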;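 also: 0% = plate neutral control median and 100% = total signal loss; the record names both 10 and 1 µM as test concentration; the first replicate is given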
Target sequence (P42568 whole entry, looked up): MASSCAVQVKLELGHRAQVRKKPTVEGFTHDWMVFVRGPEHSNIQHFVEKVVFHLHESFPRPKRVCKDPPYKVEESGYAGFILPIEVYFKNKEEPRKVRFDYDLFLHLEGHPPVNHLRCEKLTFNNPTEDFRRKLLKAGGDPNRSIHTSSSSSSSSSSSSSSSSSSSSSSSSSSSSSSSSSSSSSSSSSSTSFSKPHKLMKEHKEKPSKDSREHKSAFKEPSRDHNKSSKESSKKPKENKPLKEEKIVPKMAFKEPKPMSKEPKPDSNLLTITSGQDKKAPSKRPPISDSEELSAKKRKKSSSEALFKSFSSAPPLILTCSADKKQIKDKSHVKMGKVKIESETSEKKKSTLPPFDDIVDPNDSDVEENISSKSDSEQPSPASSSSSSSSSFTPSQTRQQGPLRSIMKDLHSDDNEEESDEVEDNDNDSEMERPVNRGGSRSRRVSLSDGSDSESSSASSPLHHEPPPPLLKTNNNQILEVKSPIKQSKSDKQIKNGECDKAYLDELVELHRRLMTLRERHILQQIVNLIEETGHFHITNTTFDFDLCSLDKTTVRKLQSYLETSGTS
ALR H2O2 inh: inhibitors of human sulfhydryl oxidase ALR | P55789 | purified ALR, DTT oxidation, H2O2 HRP-luminol luminescence | inhibition, % (no concentration beside the values) | actives 3.8% (n = 290,000) | AID 485317;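 active = mean and each replicate at 75% or more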;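 also: stock transfer was 7.5 nL into about 7.5 µL; 0% = neutral wells and 100% = wells with inactivated enzyme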
FGF22 binding: FGF22 (human) thermal shift binding | Q9HCT0 | recombinant FGF22 thermal shift, SYPRO orange fluorescence; percent of sucrose octasulfate shift, DMSO zero | calls only at 9.99 µM | actives 1.5% (n = 340,000) | AID 651658;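 active = melting point raised past a set limit in the mean and every replicate; three in four hits are not shown here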
HNF4A DNA FP: change in binding of human HNF4 alpha to DNA. P41235. HNF4a-FITC DNA binding, fluorescence polarization, 1 h. activity change, % at 10 µM. actives 0.3% (n = 360,000); in the data active = activity change above about 30%, passing the limit was not always enough;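 also: controls were the assay level and a saturating level of protein; the project sought stronger binding though the title names inhibitors; some compounds called inactive have numbers as strong as hits; positive values seem to mean higher polarization but the record does not say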
Target sequence (P41235 whole entry, looked up): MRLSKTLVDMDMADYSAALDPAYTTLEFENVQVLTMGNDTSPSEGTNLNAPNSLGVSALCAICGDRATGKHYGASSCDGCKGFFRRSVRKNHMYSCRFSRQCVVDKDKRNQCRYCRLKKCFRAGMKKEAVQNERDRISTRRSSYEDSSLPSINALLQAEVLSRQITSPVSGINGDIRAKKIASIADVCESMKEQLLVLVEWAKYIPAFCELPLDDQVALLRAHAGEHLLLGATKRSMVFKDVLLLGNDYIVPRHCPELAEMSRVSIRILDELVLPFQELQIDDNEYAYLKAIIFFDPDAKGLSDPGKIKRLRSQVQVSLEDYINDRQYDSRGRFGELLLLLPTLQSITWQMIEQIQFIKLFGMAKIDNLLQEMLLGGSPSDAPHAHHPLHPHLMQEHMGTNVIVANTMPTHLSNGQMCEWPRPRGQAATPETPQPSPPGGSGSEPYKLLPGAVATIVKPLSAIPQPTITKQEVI
E coli growth: E. coli growth inhibition. Escherichia coli growth, OD600, 23 h; stronger effect = lower value. OD600 absorbance (test concentration not listed). actives 0.21% (n = 330,000). AID 1053175;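 active = OD600 absorbance below the run mean of sample wells minus 3.6 SD, in any replicate, cut at about 0.56 in these data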;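 also: stock transfer was 300 nL into about 60 µL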
Vif TR-FRET: HIV-1 Vif–A3G interaction blockers – biochemical, TR-FRET, GST-Vif 1-94, biotin-A3G peptide, dose response retest, primary screen (AID 1117319). one-dose inhibition, %; IC50 in µM for titrated hits. actives 0.57% (n = 260,000). TR-FRET GST-Vif / biotin-A3G peptide binding; higher % means a stronger effect; test concentration not given here; strong numbers were not always called active;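 active = above the screen mean plus three standard deviations and confirmed in dose response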;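 also: Vif residues 1-94 fused to GST binding biotinylated APOBEC3G peptide 110-148; 0% = full assay without inhibitor and 100% = GST in place of GST-Vif; retest series ran down from 100 µM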
rRNA inh HTS: inhibitors of bacterial rRNA selective over humanized ribosomes; GFP signal change (wild-type ribosome), % (test concentration not listed); E. coli WT GFP vs humanized-ribosome RFP mutants, fluorescence, 24 h; stronger effect = lower value; DMSO median 0, no signal -100; AID 720706; actives 1.6% (n = 350,000);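 active = significant combined selectivity score with lowered wild-type GFP, culture density cut under 30%, mutant RFP and density less affected; inactive = any of these conditions unmet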; also: one replicate is shown; some compounds called inactive have numbers as strong as hits
rRNA inh HTS OD600: second read-out of rRNA inh HTS, no call of its own (marks repeat the call); OD600 change, %; measured here: OD600 growth;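 optical density of the mix in the first replicate; 0 = DMSO median and -100 = no signal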
rRNA inh HTS RFP: second read-out of rRNA inh HTS, no call of its own (marks repeat the call); RFP signal change, %; measured here: RFP humanized mutant strains;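 first replicate; 0 = DMSO median and -100 = no signal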
Starred values were filed as active, the others as inactive; i = inactive; x = not tested or not shown. Some of the compounds tested. The share of hits here may be higher or lower than overall.

SMILES | MLL AF4-AF9 inh | ALR H2O2 inh | FGF22 binding | HNF4A DNA FP | E coli growth | Vif TR-FRET | rRNA inh HTS | rRNA inh HTS OD600 | rRNA inh HTS RFP
CCCCSc1nc2c([nH]1)c(=S)n(C)c(=O)n2C | 2.3 | x | i | 2.1 | x | x | 8 | 19 | 1.2
C[C@@H]1CN([C@@H](C)CO)C(=O)c2cc(NC(=O)NC3CCCCC3)ccc2O[C@@H](C)CCCCO[C@@H]1CN(C)S(=O)(=O)c1ccccc1 | -1.2 | x | i | x | x | x | 0 | -1 | -0.5
O=C(COC(=O)CNC(=O)c1ccccc1F)NC12CC3CC(CC(C3)C1)C2 | 0.1 | 1 | i | 0.7 | 0.66 | 1% | -2 | 6 | 0.0
Cc1nn(Cc2nc(-c3cccs3)no2)c(C)c1Br | -4.9 | 6 | i | 3.7 | 0.73 | 7% | -7 | -14 | 9.7
CCOC(=O)C1C(=O)CC(C)(O)C(C(=O)OCC)C1c1cccc(OC(F)(F)C(F)F)c1 (stereo not drawn) | x | 1 | x | -0.3 | 0.74 | 1% | x | x | x
Cc1cc(=O)[nH]c(SCC(=O)N2CCCC2)n1 | -2.1 | 22 | i | 1.0 | 0.69 | x | 6 | 6 | -2.7
CCN(C(=O)COC(=O)c1cc2ccccc2cc1O)C1CCS(=O)(=O)C1 (stereo not drawn) | x | -8 | x | -1.2 | 0.73 | 1% | x | x | x
C[C@H]1CN([C@@H](C)CO)C(=O)c2cccc(NC(=O)Nc3ccc(C(F)(F)F)cc3)c2O[C@H]1CN(C)C(=O)Nc1ccc(C(F)(F)F)cc1 | 5.0 | x | i | x | x | x | 3 | 4 | 0.6
CC(=O)Nc1cc(NC(C)=O)c(N=Nc2ccccc2)cc1C | 7.5 | -9 | i | -1.1 | 0.61 | x | -10 | -6 | -3.2
COCCNC(=S)N(CCc1c(C)[nH]c2ccc(OC)cc12)Cc1ccco1 | 7.9 | 54 | i | 2.0 | 0.69 | -1% | 13 | -1 | -0.3
CN(C)c1ccc2c(c1)[C@@H]1C[C@H](CC(=O)O)O[C@@H](CO)[C@@H]1O2 | -0.1 | x | i | x | x | x | 5 | 4 | -0.5
O=C(Nc1ccc([N+](=O)[O-])cc1)C1(c2ccccc2)CCOCC1 | 3.3 | -26 | i | 1.5 | 0.71 | -4% | 1 | -2 | 6.9
COc1ccc(NC(=O)NCCN2CCCCC2)cc1 | -0.3 | -5 | i | -4.0 | 0.69 | x | 22 | 25 | 3.1
CCNC(=O)C1(C)CCCN(C(=O)c2cccc(C)c2C)C1 (stereo not drawn) | -1.5 | x | i | 2.6 | x | x | 12 | 27 | 1.2
COCCN(C(=O)C1CCN(C(=O)c2ccccc2C)CC1)c1c(N)n(CC(C)C)c(=O)[nH]c1=O | -0.1 | -6 | i | 6.2 | 0.6 | 0% | 21 | 17 | 0.7
Cc1ccc(N2C(=O)Nc3ccccc3S2(=O)=O)cc1Cl | 0.4 | -1 | i | 0.5 | 0.64 | 15% | -10 | -14 | 0.3
O=C(O)[C@@H]1[C@@H](CO)[C@@H]2Cn3c(ccc(-c4ccccc4)c3=O)[C@@H]2N1Cc1ccccc1F | 2.8 | x | i | x | x | x | 3 | 6 | 2.5
C=CCOc1ccccc1CN1CCC(C(=O)Nc2cccc(-c3ccn[nH]3)c2)CC1 | 7.3 | -13 | i | -2.5 | 0.68 | x | 1 | 2 | -2.6
O=c1[nH]c(SCc2ccccc2)nc2ccsc12 | -1.3 | -4 | x | 7.3 | 0.66 | -11% | -16 | -6 | 12
COc1ccccc1CC(=O)N1CCN(c2ccc([N+](=O)[O-])cc2)CC1 | 1.6 | -3 | i | 2.1 | 0.73 | 0% | 16 | 16 | 3.0
CN(C)CC/C=C1\c2ccc(F)cc2Sc2cc(F)c(Cl)cc21 | 46* | -3 | i | 2.5 | 0.6 | x | -43 | -54 | -11
COC(C(=O)Nc1ccnn1C1CCN(Cc2ccc(C)o2)CC1)c1ccccc1 (stereo not drawn) | 3.3 | -9 | i | 1.2 | 0.7 | x | 11 | 12 | 2.8
C[C@@H]1CCCCO[C@H](CN(C)C(=O)Nc2ccccc2)[C@@H](C)CN([C@@H](C)CO)C(=O)c2cc(NC(=O)CCC(F)(F)F)ccc2O1 | -1.1 | x | i | x | x | x | -4 | 0 | 0.2
COc1ccc(S(=O)(=O)N2CCOCC2)cc1NC(=O)c1ccc(S(=O)(=O)N2CCCCC2)cc1 | -5.4 | x | i | -1.6 | 0.67 | x | -1 | 8 | 7.2
COc1ccc(Cl)c2sc(N3CCN(C(=O)C4=COCCO4)CC3)nc12 | 1.6 | -5 | i | 8.0 | 0.67 | 2% | -4 | 4 | 1.3
O=C(CN1C(=O)CCC1=O)Nc1nc(-c2ccc(Cl)s2)cs1 | -0.1 | x | i | -2.0 | 0.67 | -7% | -3 | 7 | -1.9
O=C(Nc1ncccc1O)c1cccc(S(=O)(=O)N2CCCc3ccccc32)c1 | -0.9 | 12 | i | -2.8 | 0.65 | 4% | -14 | -31 | -5.2
CCOC(=O)c1cc(S(=O)(=O)Nc2cccc(OC)c2)cn1C | -2.3 | -2 | i | -1.5 | 0.68 | x | -4 | -4 | -2.1
CNc1c([N+](=O)[O-])cnn1-c1ccc(Cl)cc1Cl | x | 5 | x | -1.3 | 0.65 | 6% | x | x | x
COc1ncnc2c1ncn2CCCN1CCN(C(=O)C2CC2)CC1 | -2.1 | x | i | -2.2 | x | -3% | 4 | 13 | -2.5
COc1cc2c(cc1OC)C(C)N(C(=O)c1cc(Cl)nc(Cl)c1)CC2 (stereo not drawn) | 0.5 | 1 | i | -2.3 | 0.65 | 3% | 19 | 12 | 6.7
COc1cc(CNCCO)cc(Br)c1OCc1ccccc1Cl | x | -4 | x | -2.0 | x | 1% | x | x | x
Cc1ccc(N(Cc2cc(=O)[nH]c3ccccc23)C(=O)CCl)c(C)c1 | -0.7 | 55 | i | 0.0 | 0.65 | -22% | 3 | 4 | 2.1
C[C@H]1CN([C@@H](C)CO)C(=O)Cc2cc(NC(=O)CCC(F)(F)F)ccc2O[C@@H]1CN(C)Cc1ccccc1 | -2.1 | x | i | x | x | x | -2 | 3 | 0.4
CC(=O)N1CCN(C2=NC(=O)C(=C3CCCCC3)S2)CC1 | x | -16 | x | 2.2 | 0.74 | 10% | x | x | x
Cc1ccccc1Cn1c(=O)n(CCCC(=O)NCc2ccco2)c(=O)c2ccccc21 | x | x | x | -0.5 | 0.77 | 1% | x | x | x
CCOC(=O)N1CCN(C(=O)C(=O)Nc2sc3c(c2C(=O)O)CC(C)(C)OC3)CC1 | -1.1 | 2 | i | 6.0 | 0.69 | x | 4 | 1 | 1.0
Cc1ccccc1COc1ccc(/C(O)=C2/C(=O)C(=O)N(CCCn3ccnc3)C2c2ccco2)cc1 (stereo not drawn) | x | -12 | x | 2.2 | 0.68 | 4% | x | x | x
CC(C)C#Cc1ccc([C@@H]2[C@H](C#N)N(C(=O)C3CC3)[C@H]2CO)cc1 | 0.5 | x | i | x | x | x | 2 | -35 | -3.3
Cc1cc2ccccn2c1C(=O)c1nc(NCc2ccco2)ncc1Cl | 8.5 | 17 | i | 0.5 | 0.76 | -7% | -5 | -3 | 0.5

Of the compounds above, these contain bromine:
SMILES | MLL AF4-AF9 inh | ALR H2O2 inh | FGF22 binding | HNF4A DNA FP | E coli growth | Vif TR-FRET | rRNA inh HTS | rRNA inh HTS OD600 | rRNA inh HTS RFP
Cc1nn(Cc2nc(-c3cccs3)no2)c(C)c1Br | -4.9 | 6 | i | 3.7 | 0.73 | 7% | -7 | -14 | 9.7
COc1cc(CNCCO)cc(Br)c1OCc1ccccc1Cl | x | -4 | x | -2.0 | x | 1% | x | x | x

Carrying on.
SMILES | MLL AF4-AF9 inh | ALR H2O2 inh | FGF22 binding | HNF4A DNA FP | E coli growth | Vif TR-FRET | rRNA inh HTS | rRNA inh HTS OD600 | rRNA inh HTS RFP
C[C@@H]1CN([C@H](C)CO)C(=O)c2cc(NC(=O)Cn3cnnn3)ccc2O[C@@H]1CN(C)S(=O)(=O)c1ccccc1 | 1.2 | x | i | x | x | x | 4 | -2 | -0.1
COc1ccc(C2=Nc3ccc(C)cc3C(c3ccccc3)N2CC(=O)NN)cc1 (stereo not drawn) | 0.4 | 28 | i | -3.2 | 0.72 | 16% | 1 | -7 | 2.1
O=C(C[C@@H]1CC[C@H]2[C@@H](COC[C@@H](O)CN2S(=O)(=O)c2ccc(F)cc2)O1)NCC1CC1 | 6.6 | x | i | x | x | x | 6 | 13 | -2.0
COc1ccc2ccc3c(c2c1)N=CC1(O3)N(C)c2ccccc2C1(C)C (stereo not drawn) | x | -16 | x | 0.0 | 0.69 | 3% | x | x | x
Cc1cc(C)c(S(=O)(=O)c2ccccc2C)c(OCCN(C)C)n1 | 0.3 | -3 | i | -0.6 | 0.63 | -12% | 1 | 4 | -4.8
CC1=C(C(=O)N(C)C)CC(CC(=O)NCCc2ccccn2)C(=O)N1CCCN1CCCC1=O (stereo not drawn) | -7.9 | x | i | 2.8 | x | -1% | 5 | 4 | -3.6
Cc1cccc(OCC(=O)Nc2nonc2NC(=O)COc2cccc(C)c2)c1 | x | -15 | x | -0.6 | 0.67 | -1% | x | x | x
CCCN1C[C@@H](C)[C@H](OC)CN(C)C(=O)c2ccc(NC(=O)COC)cc2OC[C@@H]1C | -13 | x | i | x | x | x | 0 | 5 | -2.2
Cc1ccc(S(=O)(=O)NCCCN2CCOCC2)c(C)c1 | x | -24 | x | -0.9 | 0.69 | 2% | x | x | x
Cc1ccc(/C=N/Nc2ccc(Cl)nn2)cc1 | 5.6 | 7 | i | -1.3 | x | -7% | 3 | 0 | -10
CCOC(=O)c1[nH]c(C(=O)O)c(OC(=O)CC)c1C | -14 | -1 | i | -4.2 | 0.66 | 21% | 1 | 12 | 1.2
COc1ccc(-c2nc3ccc(Br)cn3c2Cc2ccsc2)cc1OC | 7.7 | x | i | 12 | x | x | -12 | -6 | -2.7
O=[N+]([O-])c1ccc(N2CCN(c3ccc(F)cc3)CC2)nc1 | -2.5 | -2 | i | 4.8 | 0.67 | -4% | 9 | 11 | 0.4
COCCNC(=O)c1ccc(CS(=O)(=O)c2ccc(Cl)cc2)o1 | x | -2 | x | -1.5 | 0.67 | 9% | x | x | x
O=C(CN1CCN(c2ccc(Cl)cc2)CC1)c1ccccc1 | 2.1 | 5 | i | -2.6 | 0.65 | -3% | -1 | -2 | 0.1
CCN(CC)S(=O)(=O)c1ccc(N2CCCC2)c(NS(=O)(=O)c2cccs2)c1 | -1.6 | x | i | 0.4 | 0.65 | x | -14 | -13 | 0.8
C[C@H]1CN([C@@H](C)CO)C(=O)c2cc(NC(=O)Cc3ccccc3)ccc2O[C@H]1CN(C)S(=O)(=O)c1cn(C)cn1 | -3.2 | x | i | x | x | x | 1 | -1 | -1.8
COc1ccc(OC)c(C(=O)COC(=O)CNC(=O)c2ccccc2)c1 | -5.5 | -3 | i | -0.7 | 0.72 | x | 5 | -2 | -1.3
CCc1ccccc1NC(=O)CSc1nnc(C2CC2)n1CC1CCCO1 (stereo not drawn) | 1.3 | 3 | i | 0.1 | 0.68 | x | 2 | 10 | -1.7
